Screens (PubChem BioAssay)
HNF4A DNA FP: change in binding of human HNF4 alpha to DNA; P41235; HNF4a-FITC DNA binding, fluorescence polarization, 1 h; hit rate 0.3% among 360,000; activity change, % at 10 µM; in the data active = activity change above about 30%, passing the limit was not always enough;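 also: controls were the assay level and a saturating level of protein; the project sought stronger binding though the title names inhibitors; some compounds called inactive have numbers as strong as hits; positive values seem to mean higher polarization but the record does not say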
Target sequence (P41235 whole entry, looked up): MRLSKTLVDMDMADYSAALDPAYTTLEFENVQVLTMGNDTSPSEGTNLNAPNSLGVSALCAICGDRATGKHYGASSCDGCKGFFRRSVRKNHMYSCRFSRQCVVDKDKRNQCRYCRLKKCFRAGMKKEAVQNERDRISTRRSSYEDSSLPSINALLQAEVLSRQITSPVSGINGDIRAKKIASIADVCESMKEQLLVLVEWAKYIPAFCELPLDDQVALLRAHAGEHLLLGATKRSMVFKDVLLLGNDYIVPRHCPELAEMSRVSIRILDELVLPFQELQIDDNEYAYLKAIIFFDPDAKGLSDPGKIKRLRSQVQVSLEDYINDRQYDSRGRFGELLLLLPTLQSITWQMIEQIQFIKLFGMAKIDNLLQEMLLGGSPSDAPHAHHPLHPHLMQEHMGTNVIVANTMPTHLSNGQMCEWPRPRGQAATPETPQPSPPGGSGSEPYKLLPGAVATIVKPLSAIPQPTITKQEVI
Vif TR-FRET: HIV-1 Vif–A3G interaction blockers – biochemical, TR-FRET, GST-Vif 1-94, biotin-A3G peptide, dose response retest, primary screen (AID 1117319); TR-FRET GST-Vif / biotin-A3G peptide binding; higher % means a stronger effect; test concentration not given here; strong numbers were not always called active; one-dose inhibition, %; IC50 in µM for titrated hits; hit rate 0.57% among 260,000;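 active = above the screen mean plus three standard deviations and confirmed in dose response; inconclusive = results disagree or hit not tested in dose response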;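 also: Vif residues 1-94 fused to GST binding biotinylated APOBEC3G peptide 110-148; 0% = full assay without inhibitor and 100% = GST in place of GST-Vif; retest series ran down from 100 µM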
Bfl-1 A1 inh: inhibitors of the anti-apoptotic protein A1, read as caspase activation; hit rate 0.066% among 330,000; caspase activation, % (test concentration not listed); MEF A1-2A-BIM cells, Caspase-Glo 3/7 luminescence, 3 h; percent of clofoctol response, vehicle zero; AID 2462;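 active = over half of replicate activation scores above 10%, or exactly half above 10 with the replicate mean above 10; inconclusive = replicate mean below 10 yet half the replicates above 10; inactive = over half of replicates below 10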;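 also: wells of about 30 µL received 50 nL stock; many hits fall short of the cut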
Beta2AR agonist: human beta-2 adrenergic receptor agonism by FAP; P07550; Am2.2-beta2AR cells, FAP receptor internalization, flow cytometry; reference of the scale not given here; response, % (concentration not given with the values); hit rate 0.43% among 340,000; AID 504454;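 active = response above a set limit, near 3 SD of response in nonfluorescent compounds, cut at about 42% in these data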;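 also: stock transfer was 100 nL into about 11 µL; a reference agonist was the positive control; negative values mostly stem from fluorescent compounds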
E coli growth: blocks Escherichia coli growth; OD600, 23 h; hits give low values; OD600 absorbance (no concentration beside the values); hit rate 0.21% among 330,000;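 active = OD600 absorbance below the run mean of sample wells minus 3.6 SD, in any replicate, cut at about 0.56 in these data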;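 also: stock transfer was 300 nL into about 60 µL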
UCH37 DUB inh: human UCH37 deubiquitinating enzyme inhibition. Q9Y5K5. purified proteasome/UCH37, Ub-AMC cleavage fluorescence. inhibition, % (concentration not given with the values). hit rate 0.33% among 330,000;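 active = mean of two replicates above 20%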;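 also: 0% = compound-free wells with enzyme and 100% = wells lacking proteasome; stock transfer was 100 nL into about 20 µL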
Target sequence (Q9Y5K5 whole entry, looked up): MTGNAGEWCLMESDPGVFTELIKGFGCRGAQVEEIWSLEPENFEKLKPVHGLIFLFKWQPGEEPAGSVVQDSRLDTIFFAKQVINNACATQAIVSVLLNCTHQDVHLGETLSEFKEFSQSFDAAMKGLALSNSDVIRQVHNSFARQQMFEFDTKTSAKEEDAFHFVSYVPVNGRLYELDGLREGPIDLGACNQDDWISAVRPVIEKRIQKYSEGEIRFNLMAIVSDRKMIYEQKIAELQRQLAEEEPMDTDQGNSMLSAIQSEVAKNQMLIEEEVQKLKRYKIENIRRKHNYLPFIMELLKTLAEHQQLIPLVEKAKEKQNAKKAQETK
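Schedule: 30 min plus 25 min, room temperature / Material: human UCH37 within purified proteasomes / Technique: AMC fluorescence intensity at 355/460 nm / Buffer or medium: pH 7.4 Tris-HCl (50 mM) with ovalbumin, ATP-MgCl2, DTT / Controls: wells without proteasome as full block, compound-free enzyme plus substrate as uninhibited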
LANA-H2B inh: blocks KSHV LANA binding to histone H2A/H2B. Q9QR71. cell-free LANA-H2A/H2B peptide, fluorescence polarization. inhibition, % (no concentration beside the values). hit rate 0.6% among 320,000. AID 2629; in the data active = inhibition mostly above about 10%, no sharp cut-off; inactive = mostly below about 6.7%;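 also: stock transfer was 7.5 nL into about 10 µL; 0% = median of vehicle wells and 100% = median of positive control wells; one replicate is shown; the record names a cut of 25% in any replicate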
* = called active by the depositor; ? = inconclusive; nt = not tested or not shown.

item | mol | Beta2AR agonist | LANA-H2B inh | E coli growth | HNF4A DNA FP | Vif TR-FRET | Bfl-1 A1 inh | UCH37 DUB inh
1 | COc1ccc(CNC(=O)/C=C/c2cc3c(cc2Br)OCO3)cc1 | -1 | 3.8 | 0.81 | 0.5 | 0% | 0.2 | 2.3
2 | CCOC(=O)C1(Cc2ccccc2)CCCN(C(=O)c2ccc(-n3ccnc3)cc2)C1 (stereo unspecified) | -6 | 1.4 | 0.69 | 3.8 | nt | 0.8 | 5.2
3 | COc1ccc(-c2nsc3c(N4CCN(S(=O)(=O)c5ccccc5F)CC4)ncnc23)cc1 | 10 | 3.9 | 0.7 | -2.3 | -1% | 0.3 | -36
4 | Cc1cc(NC(=O)CC#N)n(-c2ccccc2)n1 | -2 | 5.1 | 0.7 | 3.7 | 3% | -0.5 | -0.7
5 | CC(C)N(C(=O)N1CCN(c2ccnc3cc(Cl)ccc23)CC1)C(C)C | 6 | nt | 0.64 | 0.6 | -5% | nt | 0.5
6 | Cc1nc(-c2ccccc2)sc1C1(C)CC(c2ccc(C#N)cc2)=NO1 (stereo unspecified) | 1 | 0.8 | 0.71 | 1.2 | 15% | -0.9 | 1.8
7 | O=C(NNC(=S)Nc1ccc(F)cc1F)c1ccco1 | 2 | 3.1 | 0.7 | -1.9 | nt | -0.4 | 2.0
8 | CC(C)(C)c1cc(Br)c(O)c(N=Nc2ccc(S(=O)(=O)N3CCOCC3)cc2)c1 | -14 | 0.9 | 0.72 | 0.4 | 12% | 0.5 | 11
9 | CC1CCN(C(=O)COc2ccc(S(=O)(=O)N3CCOCC3)cc2)CC1 | -4 | -7.3 | 0.65 | -1.1 | 4% | -1.2 | 1.0
10 | CC1(C)CC(=O)c2c(oc3ccc(NS(=O)(=O)c4ccc(C(=O)O)cc4)cc23)C1 | 0 | 0.1 | 0.7 | -3.4 | 2% | -0.1 | -0.6
11 | O=S(=O)(Nc1cccc(CCc2ccccn2)c1)c1cc(Cl)ccc1Cl | -10 | -3.2 | 0.7 | 5.1 | 12% | -0.4 | -0.2
12 | O=C(CCc1ccccc1)N=C1SC2CS(=O)(=O)CC2N1c1ccccc1 (stereo unspecified) | -2 | 4.1 | 0.71 | 2.2 | nt | 1.1 | 0.4
13 | CC(=O)C1=C(O)C(=O)N(c2nccs2)C1c1ccc(Br)cc1 (stereo unspecified) | 3 | -1.6 | 0.72 | 0.3 | 0% | 2.5 | -8.5
14 | Cc1ccc(C(=O)NCCC(=O)N2CCCC2)cc1 | 6 | 1.1 | 0.67 | 0.5 | 2% | 0.3 | 2.1
15 | O=C(Nc1ccc(C(=O)O)cc1)/C(=C/c1ccc([N+](=O)[O-])cc1)NC(=O)c1ccccc1 | 4 | -13 | 0.67 | -0.6 | 18% | -0.1 | 13
16 | O=C(Nc1ccccn1)c1ccc(Br)c(S(=O)(=O)N2CCCC2)c1 | -24 | 1.1 | 0.67 | 1.6 | -10% | -0.5 | -0.1
17 | COc1ccc(-c2[nH]ncc2-c2cnn(-c3ccccc3)c2)c(O)c1 | -1 | 2.9 | 0.67 | -3.0 | ? | -0.2 | 0.5
18 | CCN(CC)c1ccc(NC(=O)Cn2ncc3c(C)n(Cc4ccccc4F)c(C)c3c2=O)c(C)c1 | 15 | -2.3 | 0.7 | 2.5 | 5% | -0.1 | 4.6
19 | CC(C)(C)NC(=O)C(=O)NNC(=O)COc1ccc(Br)cc1 | 1 | 3.3 | 0.72 | 1.6 | -1% | 0.7 | 3.2
20 | COc1ccc(Cn2c(O)c(/C=N/NC(=O)c3cccnc3)c3ccccc3c2=O)cc1 | 0 | nt | 0.66 | 44* | -10% | nt | 0.3
21 | CCOC(=O)N/N=C\C=C\c1ccco1 | -3 | -3.2 | nt | -4.8 | nt | 0.2 | nt
22 | COc1cccc(C(c2nnnn2Cc2ccco2)N2CCN(Cc3ccccc3)CC2)c1OC (stereo unspecified) | -6 | -3.5 | 0.71 | 2.1 | 7% | 0.7 | 3.4
23 | COc1ccc(C)cc1NC(=O)NNC(=O)c1cc2ccccc2cc1O | 2 | 0.4 | 0.64 | 1.6 | nt | -0.1 | -11
24 | CCn1c(NC(=O)Nc2cccc(C)c2C)cc2sccc21 | -5 | 3.1 | 0.73 | 3.7 | 11% | -0.3 | -0.4
25 | Cc1cccc(C)c1NC(=O)Nc1cccs1 | 7 | 0.0 | 0.7 | 2.4 | ? | 0.4 | 5.4
26 | Cc1nc2c(ncn2-c2ccccc2)c(=O)n1NC(=O)CN1CCOCC1 | 1 | -0.4 | 0.67 | 3.0 | -13% | 1.1 | 0.8
27 | COc1ccc(N=N/C(=C\O)C(=O)c2ccco2)cc1 | 1 | 3.6 | 0.66 | -0.3 | -4% | 1.2 | 7.2
28 | CCCCNC(=O)CSc1nc2ccccc2n1S(=O)(=O)c1ccc(Cl)cc1 | -4 | 3.5 | 0.63 | -1.1 | 22% | 0.3 | -0.5
29 | Cc1ccc(C2C(=O)N(C3CCC(C)CC3)CC(=O)N2C2CC2)cc1 (stereo unspecified) | 0 | -5.7 | 0.69 | -3.4 | ? | 1.1 | 1.1
30 | O=C(CN1CCN(CC(=O)Nc2ccccc2F)CC1)Nc1ccc2c(c1)OCCO2 | 14 | -5.4 | 0.62 | 1.0 | -10% | 1.6 | 2.2
31 | COC(=O)Cn1ccc(-c2ccc(Cl)cc2)c(C#N)c1=O | 0 | -2.4 | 0.64 | 2.9 | -9% | 0.7 | -28
32 | COc1cc(/C=C/C(=O)OCC(=O)NC(=O)NCc2ccccc2)ccc1OCC#N | -4 | 3.2 | 0.69 | -1.9 | -5% | -0.6 | -5.5
33 | CCCCn1c(N2CCCC2)nc2c1c(=O)[nH]c(=O)n2C | 5 | 0.0 | 0.68 | 1.4 | 7% | 4.5 | 0.9
34 | COc1cccc(CC2(CO)CCCN(Cc3cn[nH]c3-c3cc(C)ccc3C)C2)c1 (stereo unspecified) | 1 | -0.4 | 0.66 | -2.1 | 7% | 0.5 | 0.5
35 | Nc1c(C(=O)OCC2CCCO2)c2nc3ccccc3nc2n1C1CCCCC1 (stereo unspecified) | 19 | 0.4 | 0.72 | -1.3 | 17% | 1.0 | -67
36 | N=c1c(S(=O)(=O)c2ccccc2)cc2c(=O)n3ccccc3nc2n1Cc1cccnc1 | 14 | -2.5 | 0.68 | -0.2 | -1% | 0.1 | -16
37 | Cc1ccc(S(=O)(=O)NNC(=O)C2CCN(Cc3ccccc3)CC2)cc1 | 4 | 2.9 | 0.7 | 1.2 | 7% | 1.9 | 2.9
38 | O=C(CSC1=NS(=O)(=O)c2ccccc2N1)N1CCCCC1 | -8 | -11 | 0.68 | -0.8 | 6% | 0.1 | 1.2
39 | COc1ccc(N(C)C(=O)Cc2c(C(=O)O)n(C)c3ccccc23)c(OC)c1 | -1 | -4.5 | 0.64 | 3.0 | -1% | 0.3 | 0.4
40 | CCCCNC(=O)[C@@H]1CSC2c3ccc(OC)c(OC)c3C(=O)N21 (stereo partly specified) | 4 | -4.8 | 0.63 | 0.5 | 7% | -0.3 | -101
41 | CC1CCCC(NC(=O)COC(=O)[C@@H](NC(=O)c2ccc(F)cc2)C(C)C)C1C (stereo partly specified) | -4 | -3.3 | 0.66 | -3.8 | 5% | 2.2 | -1.3
42 | CCOC(=O)Cc1nnc(Nc2ccc(C)cc2)c2ccccc12 | 21 | 2.6 | 0.72 | 1.6 | nt | 0.7 | 0.6
43 | COc1cc2ccccc2cc1C(=O)N1CCc2ccccc21 | -7 | nt | 0.72 | 2.9 | -7% | nt | -4.9
44 | COc1cc(C(F)(F)F)c(C(=O)N(C)Cc2cccc(Cl)c2)cn1 | 3 | -0.3 | 0.69 | 2.1 | 2% | -0.3 | 5.1
45 | COc1ccc(-c2cc(C(=O)N/N=C/c3cccnc3)c3cc(C)cc(C)c3n2)cc1 | -5 | 0.4 | nt | -1.8 | nt | 0.0 | nt
46 | CCCCC(c1nnnn1CC1CCCO1)N1CCN(c2cc(Cl)ccc2C)CC1 (stereo unspecified) | 0 | nt | 0.76 | 5.9 | -4% | nt | 2.2
47 | Cc1c(C)c2ccc(OCC(=O)Nc3ccccn3)cc2oc1=O | 3 | 3.8 | 0.7 | -3.7 | nt | -9.6 | -8.1
48 | O=C(/C=C/c1ccc(F)cc1)NC(=S)Nc1ccccc1O | 7 | -1.5 | 0.66 | 3.4 | -5% | 0.9 | 2.2
49 | COCCN(C(=O)CN1CCc2ccccc2C1)c1c(N)n(Cc2ccccc2)c(=O)[nH]c1=O | 10 | 3.6 | 0.69 | -2.5 | 2% | -1.0 | 2.4
50 | O=C1c2ccccc2C(=O)N1CCCCN(C(=O)c1cc2ccccc2oc1=O)c1ccc(Cl)cc1 | -12 | 0.7 | 0.69 | -2.4 | nt | -1.7 | 0.9

Three entries drawn at random from those above:
item | mol | Beta2AR agonist | LANA-H2B inh | E coli growth | HNF4A DNA FP | Vif TR-FRET | Bfl-1 A1 inh | UCH37 DUB inh
39 | COc1ccc(N(C)C(=O)Cc2c(C(=O)O)n(C)c3ccccc23)c(OC)c1 | -1 | -4.5 | 0.64 | 3.0 | -1% | 0.3 | 0.4
47 | Cc1c(C)c2ccc(OCC(=O)Nc3ccccn3)cc2oc1=O | 3 | 3.8 | 0.7 | -3.7 | nt | -9.6 | -8.1
26 | Cc1nc2c(ncn2-c2ccccc2)c(=O)n1NC(=O)CN1CCOCC1 | 1 | -0.4 | 0.67 | 3.0 | -13% | 1.1 | 0.8

Later entries:
item | mol | Beta2AR agonist | LANA-H2B inh | E coli growth | HNF4A DNA FP | Vif TR-FRET | Bfl-1 A1 inh | UCH37 DUB inh
51 | Cc1cccc(NC(=O)c2ccc(N3C(=O)C4CCCCC4C3=O)cc2)c1C (stereo unspecified) | 10 | 2.4 | 0.7 | -2.0 | nt | -0.2 | 1.4
52 | COc1ccc2cc3c(N)nn(C(=O)Cc4ccccc4OC)c3nc2c1 | 10 | -2.1 | 0.74 | 1.8 | ? | -0.2 | -3.3
53 | COc1ccc(OCc2nnc(SCC(=O)N3C(C)CCCC3C)o2)cc1 (stereo unspecified) | -10 | -8.6 | 0.69 | 0.4 | nt | 0.2 | -0.5
54 | CC(C)C[C@@]12C(=O)N(c3cccc(F)c3)C(=O)N1[C@H](c1ccc(Br)cc1)[C@@H]1C(=O)N(C(C)(C)C)C(=O)[C@@H]12 | -2 | -3.4 | nt | -1.8 | nt | 0.8 | 0.3
55 | COc1cc(OC)c2c(-c3ccccc3)cc(=O)oc2c1C(CCN1CCN(c2ccccc2)CC1)c1ccc(N(C)C)cc1 (stereo unspecified) | -3 | -3.3 | 0.72 | 1.0 | nt | 0.0 | 4.5
56 | CC(C)[C@H](NC(=O)c1ccccc1)C(=O)OCC(=O)NCc1ccc(F)cc1 | 9 | 0.3 | 0.71 | -3.1 | 1% | 1.7 | 6.1
57 | O=C(NCCc1ccccc1)c1ccc(CS(=O)(=O)Cc2ccc(F)cc2)o1 | -7 | 1.5 | 0.71 | 7.0 | nt | -1.0 | 1.6
58 | O=C(O)C/C=C(/NC(=O)OCc1ccccc1)C(=O)OCc1ccccc1 | 7 | 0.0 | 0.71 | -11 | -1% | 0.5 | 3.1
59 | Cn1c(=O)c(=O)n(C)c2cc(S(=O)(=O)NCCN3CCN(c4ccccc4F)CC3)ccc21 | -12 | 2.5 | 0.7 | -3.1 | -7% | 0.3 | 2.7
60 | CC(C)c1ccc2c(c1)C(N1CCN(C)CC1)Cc1cccnc1S2 (stereo unspecified) | -1 | -2.4 | 0.61 | -0.3 | nt | 0.1 | 1.5
61 | Cc1ccc(C)c(N2CCN(C(=O)CN(C)S(=O)(=O)c3cnc[nH]3)CC2)c1 | 3 | 4.2 | 0.71 | -0.5 | 1% | 0.0 | 1.2
